# Yeast UUG start – yeast start codon fidelity modulation; S. cerevisiae UUG-firefly luciferase reporter, luminescence/redox ratio; activity score, % at 18.7 µM; 0.13% of 350,000 active; AID 602363;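 active means replicate mean at a twofold rise or more, about +100% in these data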;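 further: firefly luciferase made from a UUG start codon reports start codon fidelity; reporter light over untreated wells divided by growth signal over untreated wells; some hits fall short of that in this replicate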
# PABP polyA inh – blocks human PABP binding to poly(A) RNA | fluorescence polarization | inhibition, % at 35 µM | 1% of 290,000 active | AID 2014;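 active means 50% or more with normal probe brightness, or confirmed in later tests; inconclusive means above 50% with abnormal brightness, or retests that disagree; inactive means below 50% or failed in later tests; about a fifth of its hits are not listed in these tables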;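 further: calls also rest on retests at 20 µM and on dose response follow-up; controls were probe without protein and protein plus probe with vehicle; some compounds called inactive have numbers as strong as hits; many hits fall short of the cut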
# Target sequence (P11940 whole entry, looked up): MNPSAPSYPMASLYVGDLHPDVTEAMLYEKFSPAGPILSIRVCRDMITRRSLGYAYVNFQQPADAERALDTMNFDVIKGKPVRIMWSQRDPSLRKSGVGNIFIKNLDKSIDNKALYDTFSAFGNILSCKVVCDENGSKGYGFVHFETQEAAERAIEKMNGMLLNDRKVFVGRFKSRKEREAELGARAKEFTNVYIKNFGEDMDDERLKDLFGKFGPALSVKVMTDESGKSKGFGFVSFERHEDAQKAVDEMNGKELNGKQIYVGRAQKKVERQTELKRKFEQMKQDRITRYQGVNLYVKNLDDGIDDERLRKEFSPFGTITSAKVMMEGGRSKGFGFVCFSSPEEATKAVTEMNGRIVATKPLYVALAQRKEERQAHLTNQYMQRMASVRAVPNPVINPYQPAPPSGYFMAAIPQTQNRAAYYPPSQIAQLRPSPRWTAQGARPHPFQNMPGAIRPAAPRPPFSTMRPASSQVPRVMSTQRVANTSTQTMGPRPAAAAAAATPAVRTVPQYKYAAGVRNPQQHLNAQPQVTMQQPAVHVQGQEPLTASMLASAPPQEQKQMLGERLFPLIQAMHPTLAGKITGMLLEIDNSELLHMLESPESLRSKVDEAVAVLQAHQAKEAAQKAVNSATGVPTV
# MT1-MMP act inh – blocks activation of human MT1-MMP; P50281; HT1080 RFP-PRO-GFP cells, GFP/RFP ratio fluorescence, overnight; percent of plate control window, DMSO zero; GFP/RFP ratio change, % at 20 µM; 0.061% of 360,000 active; AID 651647;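 active means GFP/RFP ratio change of at least 30% with cell ATP level not reduced by more than half and red fluorescence within 50% of control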; further: strong numbers were not always called active
#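 Material – HT1080 RFP-PRO-GFP cells · Control set – DMSO wells and RFP-L50D-GFP cells · Incubation – overnight cell settling, then overnight compound exposure, 37 °C, 5% CO2 · Compound dosing – single-point 20 µM compound, 1% DMSO · Read-out – GFP/RFP fluorescence ratio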
# CSC inhib – cancer stem cell inhibition; cancer stem cell-like cells viability, luminescence; inhibition, % at 7.5 µM; 1.1% of 300,000 active;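 active means mean at 75% or more and at least half the replicates too; inconclusive means mean and replicates disagree; tested in HMLE shEcad cells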;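 further: 0% = median of negative and 100% = median of positive control wells; the first replicate is given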
# Rce1 inh – yeast Ras-converting enzyme inhibition; 0.27% of 290,000 active; calls only; yeast membranes, quenched prenylated peptide cleavage fluorescence; Q03530;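 active means fall in fluorescence gain of 50% or more versus controls, with final raw signal at or below 3038400; inconclusive means same 50% fall but final raw signal above 3038400; inactive means fall in fluorescence gain under 50%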;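 further: plate controls were neutral control wells for no effect and wells lacking membranes for full effect; tested at 10 µM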
# Target sequence (Q03530 whole entry, looked up): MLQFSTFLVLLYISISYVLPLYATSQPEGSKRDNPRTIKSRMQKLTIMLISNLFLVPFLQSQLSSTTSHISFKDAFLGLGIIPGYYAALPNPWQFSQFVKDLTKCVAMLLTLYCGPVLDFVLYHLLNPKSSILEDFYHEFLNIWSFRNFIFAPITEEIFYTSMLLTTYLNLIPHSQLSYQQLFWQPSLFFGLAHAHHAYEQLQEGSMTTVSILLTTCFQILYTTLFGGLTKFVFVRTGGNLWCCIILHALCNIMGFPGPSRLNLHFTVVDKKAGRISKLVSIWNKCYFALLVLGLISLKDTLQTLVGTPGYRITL
# eIF4H inh – inhibitors of RNA binding by human eIF4H; inhibition, % at 35 µM; eIF4H fluorescence polarization binding assay; 0.94% of 290,000 active; Q15056;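 active means 50% or more with normal probe brightness, or confirmed in later tests; inconclusive means above 50% with abnormal brightness, or retests that disagree; inactive means below 50% or failed in later tests; about a fifth of its hits are not listed in these tables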;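 further: calls also rest on retests at 20 µM and on dose response follow-up; 0% = protein and probe with vehicle and 100% = probe without protein; strong numbers were not always called active; many hits fall short of the cut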
# HIV Env fusion – blocks HIV Env-driven cell-cell fusion; 1.1% of 360,000 active; HeLa-JRFL Env/CEM21 cell fusion, luciferase; inhibition, % at 12.3 µM; AID 651610;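 active means mean replicate inhibition score of at least 50 and every replicate individually at or above 50; inconclusive means only one of the two criteria met; inactive means mean below 50 and not all replicates reaching 50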;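 further: 0% = plate neutral controls and 100% = maraviroc near 300 nM; one replicate is shown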
# eIF4H inh retest – further read-out of eIF4H inh, marked with its call; inhibition, %; compound at 20 µM; confirmation average;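 mean of two retest wells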
# PABP polyA inh retest – also measured in PABP polyA inh; calls as there; inhibition, %; compound at 20 µM; confirmation repeats;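 mean of two retest wells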
# MT1-MMP act inh RFP – recorded beside MT1-MMP act inh, whose call it bears; RFP signal change, %; measured here: RFP expression control read;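 0 = vehicle wells; hits needed this value within 50% of zero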
# Starred values were filed as active, the others as inactive; i = inactive; u = inconclusive; x = no result given. Only part of the results is shown; count on the stated rates, not on these rows.
# Start of the listing, in advance (three entries):
SMILES,Yeast UUG start,PABP polyA inh,MT1-MMP act inh,MT1-MMP act inh RFP,CSC inhib,Rce1 inh,eIF4H inh,HIV Env fusion,others
COc1ccc(CCN2C(=O)NC(NC(=O)CC(C)C)(C(F)(F)F)C2=O)cc1OC (configuration not stated),3,-8,0,2,2,i,1,2,
Cc1ccc(NS(=O)(=O)c2ccc(C(=O)N3CCCC(C(F)(F)F)C3)cc2)cc1 (configuration not stated),-8,x,-1,-13,1,i,x,x,
COc1cc(CN2C(=O)C(CCc3ccccc3)ON=C2c2cnccn2)cc(OC)c1 (configuration not stated),-5,x,1,-5,x,x,x,10,

# All compounds of this part, repeating the preview:
SMILES,Yeast UUG start,PABP polyA inh,MT1-MMP act inh,MT1-MMP act inh RFP,CSC inhib,Rce1 inh,eIF4H inh,HIV Env fusion,others
COc1ccc(CCN2C(=O)NC(NC(=O)CC(C)C)(C(F)(F)F)C2=O)cc1OC (configuration not stated),3,-8,0,2,2,i,1,2,
Cc1ccc(NS(=O)(=O)c2ccc(C(=O)N3CCCC(C(F)(F)F)C3)cc2)cc1 (configuration not stated),-8,x,-1,-13,1,i,x,x,
COc1cc(CN2C(=O)C(CCc3ccccc3)ON=C2c2cnccn2)cc(OC)c1 (configuration not stated),-5,x,1,-5,x,x,x,10,
CC(=O)NC(CC(=O)Nc1nccs1)c1ccccc1 (configuration not stated),1,11,-2,1,-6,i,3,0,
COCC(C)NC(=O)C1CC(=O)N(c2ccc(C)cc2)C1 (configuration not stated),-9,6,0,-2,-12,i,8,-430,
COc1ccc(Nc2nc3ccc(C)cn3c(=O)c2/C=N/O)cc1,-12,14,-2,-5,3,i,10,17,
COc1ccc(C2=NS(=O)(=O)N(C)C(C(=O)NC3CCCC3)=C2)cc1,-2,1,-2,-1,8,i,-4,19,
CN1CCN(S(=O)C23CC4CC(CC(C4)C2)C3)CC1 (configuration not stated),5,2,1,0,-4,i,-4,-22,
COc1ccccc1C1CCN(C(=O)c2ccc(C(C)(C)C)cc2)CC1,10,-3,-3,-5,9,i,-6,14,
CC(C)C(=O)N1CCN(c2ccc([N+](=O)[O-])cc2Cl)CC1,x,0,0,-7,-6,i,1,x,
c1ccc(Cc2cc[n+](Cc3ccccn3)cc2)cc1,x,-8,0,1,-2,i,-12,13,
CCOc1ccccc1C(=O)N(CN1CCCC1=O)c1cccc(Cl)c1,-11,2,1,-4,19,i,6,16,
COC(=O)c1cc2ccccc2n1Cc1ccc(Cl)nc1,-4,-7,-2,-7,-2,i,-16,7,
O=C(NCCCN1CCOCC1)C(Sc1ccccc1)c1ccccc1 (configuration not stated),-6,-8,-1,-2,-13,i,3,x,
CCN(CC)CCCNC(=O)C1CCN(C(=O)c2oc3cc4sc(N(C)C)nc4cc3c2C)CC1,-21,-2,4,6,-19,i,-10,-10,
CCCn1nc(CC(=O)O)c2ccccc2c1=O,-18,12,4,5,-4,i,6,x,
CCOC(=O)CSc1nc(-c2ccccn2)ncc1OC,x,6,-1,-1,1,i,2,-10,
CCCn1c(=S)[nH]c2ccc(C(F)(F)F)cc21,-31,9,0,-2,28,i,2,8,
Cc1ccc(OCC(=O)NCCCNC(=O)c2ccncc2)cc1C,-5,-1,-3,-1,x,i,2,-17,
Cc1cc2cc(CCNC(=O)c3cccs3)c(=O)[nH]c2cc1C,-14,-1,-6,-10,-1,i,0,-53,
COc1cccc(NC(=O)CN2C(=O)COc3ccc(Cl)cc32)c1,3,10,8,-5,-6,i,-4,-2,
O=[N+]([O-])c1cccc(Cl)c1CSc1ccccn1,x,-18,-1,-1,-8,i,5,-5,
COc1ccc(CCNC(=O)C/C(C)=N/NC(=O)c2ccc(N)cc2)cc1OC,-14,2,0,4,-15,i,3,x,
CCOC(=O)C1=C(CSc2nc3c(cc2C#N)CCC3)OC(N)=C(C#N)C1c1ccccc1 (configuration not stated),-17,-6,-171,4,-5,x,37,x,
CCn1c(-c2ccc(N)cc2)nc2ccccc21,-13,-4,0,6,-9,u,-14,-8,
COc1cc2c(cc1OC)C(c1ccc(N(C)C)cc1)NCC2 (configuration not stated),2,-8,-5,0,-15,i,-5,10,
CC(C)C(NC(=O)c1ccc(F)cc1)C(=O)N1CCN(c2ccccn2)CC1 (configuration not stated),-15,x,-3,-1,-10,x,x,x,
CC(=O)c1ccc(NC(=O)C(=O)c2cn(CC(=O)N3CCCCC3)c3ccccc23)cc1,-22,0,6,3,4,i,8,x,
CCOC(=O)C1=C(C)NC(=O)CC1c1cc(OC)c(OC)cc1Br (configuration not stated),-6,14,9,5,1,i,2,29,
Cc1ccc(NC(=O)CC(NCCN2CCOCC2)C(=O)O)cc1Cl (configuration not stated),-12,-2,-7,1,5,i,-3,-1,
COc1cc(C(=O)NCC2CCCO2)ccc1OCc1ccccc1Cl (configuration not stated),10,2,3,1,14,i,3,6,
COC(=O)C1CCN(CC(=O)Nc2ccccc2Sc2ccccc2)CC1,x,-8,-4,-3,-4,i,-2,1,
C=CCOc1c(Br)cc(/C=N/n2c(CC)n[nH]c2=S)cc1Br,x,-1,10,4,28,i,5,x,
COc1cccc(S(=O)(=O)NCc2ccc(C(=O)Nc3ccc(C)cc3)cc2)c1,-20,5,4,-5,4,i,-3,x,
O=C(NCc1ccc(Cl)cc1)C1CCN(c2nnc(N3CCCC3=O)s2)CC1,1,-4,2,2,-14,i,-8,5,
COc1ccc(NC(=O)Nc2ccc3c(c2)C(=O)N([C@H](C)CO)C[C@H](C)[C@@H](CN(C)C(=O)Nc2ccc4c(c2)OCO4)O3)cc1,-4,x,2,4,-11,x,x,-9,
CC(=O)Nc1nnc(CCS(=O)(=O)c2ccc(C)c(C)c2)s1,12,-2,-1,-2,9,i,-9,10,
CCOC(=O)c1c(NC(=O)Cc2cccs2)sc(C(=O)NC2CCCC2)c1C,-24,5,6,1,12,i,2,-67,
COc1ccc(N2C(=O)[C@H]3[C@@H](C2=O)C2c4ccccc4C=NN2[C@H]3C(=O)C(C)(C)C)cc1 (some centres not stated),-11,12,-8,-2,-6,i,-2,-7,
COc1ccc(N(CCC#N)C(=O)/C(C#N)=C\c2cccs2)cc1,x,3,1,0,-1,i,5,2,
CCOc1ccc(NS(=O)(=O)c2ccc(C(=O)N3CCN(c4ncccn4)CC3)cc2)cc1,x,2,-6,-23,1,i,-3,5,
NS(=O)(=O)c1ccc(NC(=O)c2cc(Cl)ccc2Cl)cc1,-10,0,11,3,11,i,6,-5,
CCn1nc(C)cc1C(=O)N1CCCC(C(=O)c2ccc3ccccc3c2)C1 (configuration not stated),x,-4,2,-3,-17,i,0,28,
Cc1c(C#N)c2ncn(Cc3ccccn3)c(=O)c2n1-c1ccccc1,-27,-9,7,7,1,i,2,x,
COc1ccc(Cl)cc1Cn1c(C)c(C(=O)NCc2ccc(F)cc2)sc1=O,-9,x,-3,-12,x,x,x,-37,
Cn1c(NC(=O)c2ccc(F)cc2)c(-c2ccccn2)c(=O)c2ccccc21,-9,9,1,3,-9,i,86,-5,eIF4H inh retest=0;PABP polyA inh retest=5
CC(=O)c1ccc(NC(=S)NC(=O)/C=C/c2ccco2)cc1,-23,28*,-3,-1,-7,i,62*,-11,eIF4H inh retest=84*;PABP polyA inh retest=57*
COc1ccc(CNC(=O)c2ccccc2[N+](=O)[O-])cc1,x,5,1,3,-2,i,-2,x,
COc1ccccc1-n1nc(C)cc1N,-17,4,-8,-6,2,i,-4,-3,
Cc1ccsc1C(=O)N1CCC1(C)C(=O)NCCC#N (configuration not stated),-21,x,1,3,x,x,x,-21,
O=C(CN1C(=O)COc2ccc(S(=O)(=O)N3CCCCCC3)cc21)NCc1ccc(F)cc1,12,0,0,0,x,i,3,22,
COc1ccc(NC(=O)c2ccccn2)cc1,-61,2,1,1,18,i,-8,x,
CCOC(=O)C1(Cc2ccccc2C)CCCN(C(=O)CCc2cccnc2)C1 (configuration not stated),x,-9,5,5,-12,i,-13,-4,
COc1ccc(CCNC(=O)CC(=O)NCCc2ccc(OC)cc2)cc1,-10,0,-1,-2,-18,i,-19,-6,
CN(C)C1=NCCN1CC1CCCC1,-16,x,1,3,7,x,x,-2,
COc1cc(OC)c(NC2=NCCCCC2)cc1Cl,-11,-7,0,3,-16,i,-4,x,
CCN1CCN(CCCN(Cc2ccco2)C(=S)Nc2ccc(Cl)c(C)c2)CC1,x,12,2,1,x,i,9,-5,
CCn1c2ccccc2c2cc(NC(=S)N3CCOCC3)ccc21,x,-8,-6,-5,29,i,1,x,
CCc1cccc(CC)c1NC(=O)C(NS(=O)(=O)c1cccs1)c1ccccc1 (configuration not stated),2,-1,-3,-4,-9,i,5,-7,
CCOc1ccccc1NC(=S)Nc1ccc2cn[nH]c2c1,x,19,-14,-13,x,i,-4,4,
# (listing goes on)
SMILES,Yeast UUG start,PABP polyA inh,MT1-MMP act inh,MT1-MMP act inh RFP,CSC inhib,Rce1 inh,eIF4H inh,HIV Env fusion,others
NC1=NC2(CCCCC2)N=C(Nc2ccc(Br)cc2)N1,-29,1,1,1,0,i,-5,6,
CC(=O)Nc1ccc(CN2CCN(Cc3ccc(C)cc3)C(CCO)C2)cc1 (configuration not stated),x,-2,5,4,-7,i,8,5,
O=c1[nH]c(=S)[nH]c2[nH]c(=S)[nH]c12,x,91*,x,x,-12,i,88*,x,
O=C(COC(=O)CCNS(=O)(=O)c1ccccc1)NNC(=O)c1ccccc1,-14,x,-2,0,-9,i,x,12,
Cc1c(C)c2cc(Cl)c(OCC(=O)Nc3ccccn3)cc2oc1=O,-6,x,-2,-2,x,x,x,-9,
C=CCn1c(SCC(=O)c2ccc(OC)cc2)nnc1C(C)NC(=O)c1cccs1 (configuration not stated),11,0,6,-4,-2,i,1,-16,
CCCCn1c(NC(=O)C2CCCCC2)nc2ccccc21,x,-10,2,-7,14,i,4,x,
CCOc1ccc2nc(CN3CCN(Cc4ccccc4OCC)C(CCO)C3)ccc2c1 (configuration not stated),-14,3,0,0,3,i,5,4,
COC(=O)c1nc(-c2ccccc2)n[nH]1,-16,6,2,3,-3,x,-13,-43,
COc1cc(NC(=O)c2cc(-c3ccccc3)nc3c2cnn3C(C)C)cc(OC)c1OC,-14,x,-1,-13,29,x,x,x,
Cc1ccc(S(=O)(=O)NCCC(=O)NCCN2CCCCCC2)cc1,-11,32,6,5,1,i,13,-39,
Cc1ccc(NC(=O)C2CCC(N3C(=O)C4CCCCC4C3=O)CC2)cc1 (configuration not stated),-11,1,1,1,-1,i,-1,-5,
CCOC(=O)C1CNc2cc(S(=O)(=O)CC)ccc2O1 (configuration not stated),-18,-6,-7,-4,-9,i,-4,-2,
CC(C)(C)c1ccc(S(=O)(=O)Nc2cccc(C3OCCCO3)c2)cc1,x,-2,1,-7,-8,i,-7,u,
Cc1ccc(/C(O)=C2/C(=O)C(=O)N(CCCn3ccnc3)C2c2cccnc2)cc1 (configuration not stated),0,x,-2,-1,x,x,x,-19,
Cc1ccc([C@H]2C[C@@H](O)[C@H](n3cc(-c4ccc(F)cc4)nn3)CN2C(=O)c2cccs2)cc1,-9,x,2,-8,x,x,x,1,
COc1ccc(OC)c(S(=O)(=O)N2CCCC(C)C2)c1 (configuration not stated),1,-15,-4,-5,-4,i,-8,-26,
Cc1ccc(C)c(C(=O)CSc2n[nH]c(-c3ccncc3)n2)c1,-12,5,6,-1,-4,i,-9,-5,
Cc1nn(-c2ccccc2)c2sc(C(=O)NC3CCCCC3)cc12,-14,6,-2,0,45,i,6,x,
CCOC(=O)C1=C(CSc2nc3ccccc3s2)NC(=O)NC1c1cc(C)ccc1C (configuration not stated),-19,-8,-11,-10,x,x,-13,x,

# Screening data (PubChem BioAssay)
